NPYLR7 ag: agonists of mosquito NPYLR7 receptor, primary screen, cell-based, Aedes aegypti, calcium fluorescence, mosquito biting behavior. hit rate 0.15% among 270,000. Aedes aegypti neuropeptide Y-like receptor 7 (NPYLR7). activation, % at 10 µM. AID 1259423, 2018. HEK293T NPYLR7/Galpha15, GCaMP6s calcium fluorescence; in the data active = activation above about 40%;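 also: 0% = vehicle and 100% = reference agonist at the receptor; some compounds past the cut are filed as inactive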
NPYLR7 ag max-min: recorded beside NPYLR7 ag, whose call it bears; activation, %; measured here: Max-Min RFU normalised activation; some inactives read as strong as hits;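 span of the calcium signal over five minutes; 0% = vehicle and 100% = native peptide agonist; compound fluorescence can raise it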
Starred values were filed as active, the others as inactive. Only part of the results is shown; the hit share may differ from the screen's.

(1) O=c1c(SCc2ccccc2F)nccn1-c1ccc(F)c(F)c1
(2) Cc1cc(NCc2cc(=O)n3ccsc3n2)ccc1Br
(3) O=C(c1ccc(OC(F)(F)F)cc1)N1CCN(CCCOC(c2ccc(Cl)cc2)c2ccc(Cl)cc2)CC1
(4) COc1ccc(NC(=O)C2(C#N)CCCCC2)cc1Cl
(5) Cc1ccc2nc(C)c(NC(=O)CCC3CCCCC3)c(=O)n2c1
(6) CCN(CC)S(=O)(=O)c1ccc2c(c1)nc(SCc1cccc(Cl)c1F)n2C(C)C

entry no.	1	2	3	4	5	6
NPYLR7 ag	3	-2	4	-16	-1	-9
NPYLR7 ag max-min	7	-2	2	-19	-2	-11

(7) O=C(NCC1CCCN(C(=O)NCCc2ccccc2)C1)c1cc2ccccc2[nH]1 (centres undefined)
(8) O=C(CCl)N(CCc1ccccc1)CCc1ccccc1
(9) Cn1ccc2c(-c3cncnc3)ccnc21
(10) CN(C)S(=O)(=O)c1cccc(C(=O)N2Cc3cc4c(cc3C3(CCCC3)C2)OCCO4)c1
(11) O=C(Nc1ccccc1F)N1CCC(CO)(Cc2cccc(F)c2)CC1
(12) COc1cccc(NC(=O)N2CCC3(CC2)C(=O)N(CC(=O)NCCc2ccccc2OC)CN3c2ccccc2)c1

entry no.	7	8	9	10	11	12
NPYLR7 ag	11	-1	5	1	-8	22
NPYLR7 ag max-min	1	-2	5	4	-12	25

Among those listed so far, these have four or more nitrogen atoms.
(7) O=C(NCC1CCCN(C(=O)NCCc2ccccc2)C1)c1cc2ccccc2[nH]1 (centres undefined)
(9) Cn1ccc2c(-c3cncnc3)ccnc21
(12) COc1cccc(NC(=O)N2CCC3(CC2)C(=O)N(CC(=O)NCCc2ccccc2OC)CN3c2ccccc2)c1

entry no.	7	9	12
NPYLR7 ag	11	5	22
NPYLR7 ag max-min	1	5	25

Continued:
(13) O=C(NC1CCN(c2ccccc2C(=O)NCc2cccnc2)CC1)c1ccc(Cl)cc1Cl
(14) O=C(CN1C(=O)CCC1=O)Nc1c2c(nn1-c1ccccc1)CCC2
(15) O=[N+](Cc1ccccc1)NOCON[N+](=O)Cc1ccccc1
(16) Cc1c(CN2CCCC(Cn3ccnc3)C2)[nH]c2c(Cl)cccc12 (centres undefined)
(17) CCOC(=O)C1CCCN(C(=O)Cc2csc(NC(=O)CN(C(=O)c3ccccc3)C(C)C)n2)C1 (centres undefined)
(18) CCc1nc2n(n1)C(=O)C(C(c1ccc([N+](=O)[O-])cc1)N1CCCC1)S2 (centres undefined)

entry no.	13	14	15	16	17	18
NPYLR7 ag	25	7	-6	0	13	-1
NPYLR7 ag max-min	27	4	-11	-6	16	1

(19) CCCCC(=O)N1CCN(C(=O)c2cc(-c3ccc(Cl)cc3)n(-c3cccc(C)c3)c2C)CC1
(20) CSC(C)(C)CC(C)NCC(=O)Nc1ccccc1C (centres undefined)
(21) Cc1cccc(C)c1NC(=O)Nc1ccc(N2CCC(Cc3ccccc3)CC2)c(C(=O)NCC2CCCO2)c1 (centres undefined)
(22) CC(=O)c1ccc[nH]1
(23) Cc1nnc2ccc(OCCNS(=O)(=O)c3ccc(OC(F)(F)F)cc3)nn12
(24) CSCCC(=O)Nc1cc(C(C)(C)C)nn1-c1cc(Cl)ccc1Cl

entry no.	19	20	21	22	23	24
NPYLR7 ag	0	23	0	-7	-1	20
NPYLR7 ag max-min	9	12	0	-14	0	21

(25) Clc1cccc(-c2nc3c(OCc4ccccc4)cccn3c2NC2CCCCC2)c1
(26) CNc1nnc(SCC(=O)c2cc(C)n(C3CC3)c2C)s1
(27) CCNC(=S)N1CCc2cc(OC)c(OC)cc2C1CNC(=O)c1cccs1 (centres undefined)
(28) COc1cc2c(cc1OC)C(CNC(=O)c1ccccc1Cl)N(C(=O)Nc1ccccc1F)CC2 (centres undefined)
(29) C#CCNS(=O)(=O)c1cccc(C(=O)N2CCCS2(=O)=O)c1
(30) O=C(CNC(=O)c1cccc([N+](=O)[O-])c1)Nc1ccc2c(c1)OCCCO2

entry no.	25	26	27	28	29	30
NPYLR7 ag	3	4	7	7	1	-1
NPYLR7 ag max-min	16	11	22	14	0	-2

(31) CCCCNC(=O)c1ccc2nc(CC)c(N(CCCC)C(C)=O)n2c1
(32) CN(Cc1ccc2nsnc2c1)Cc1cnn(C)c1C1CC1
(33) Cc1nn(C)c(Cl)c1CNCC1(c2ccc(F)cc2)CCCC1
(34) C=CCNC(=O)N1CCN(C(C(=O)NCCc2ccc(OC)cc2)C2CCCC2)CC1 (centres undefined)
(35) CCOC(=O)c1ccc2c(c1)sc(=NC(=O)c1ccc3ncsc3c1)n2CC(=O)OC
(36) COc1ccc(CN(CCN2CCCCC2)C(C)=O)cc1OCc1nc(CO)cs1

entry no.	31	32	33	34	35	36
NPYLR7 ag	-5	8	1	-6	6	15
NPYLR7 ag max-min	-10	4	0	-7	2	17

(37) COCCNC(=O)C(NC(=O)c1ccccc1Cl)C1CCN(C(=O)c2cccc(C)c2)CC1 (centres undefined)
(38) CCOC(=O)N1CCN(C(=O)CN2C(=O)c3ccccc3C2=O)CC1
(39) Cc1nc(-c2cc(C)n(CC(=O)NC(C)C3CC3)c2C)cs1 (centres undefined)
(40) CCNC(=S)N(CCOC)Cc1c(-c2ccccc2)noc1N1CCN(C)CC1
(41) CC(c1nccs1)N(C)C(=O)c1c(Cl)c(C(F)(F)F)nn1C (centres undefined)
(42) CCOC(=O)c1nn(-c2cccc(C(F)(F)F)c2)c2nc(CC)c(C#N)c(=O)n12

entry no.	37	38	39	40	41	42
NPYLR7 ag	2	-10	3	11	2	-8
NPYLR7 ag max-min	3	-21	14	15	4	-9

(43) Cc1cnn(CCc2nc(-c3cc(Br)cs3)no2)c1
(44) CSCCC(=O)N1CCC(n2c(=O)oc3ccc(F)cc32)CC1
(45) CCCSc1ncccc1C(=O)NC(c1ccccc1)c1ccccc1
(46) Cc1ccccc1N1CCN(c2ncccc2CNC(C)Cn2cccn2)CC1 (centres undefined)
(47) Cc1nccn1-c1ccccc1CNc1cccc(F)c1C#N
(48) CCN1CCN(C(=O)c2ccc(CSc3nnc(-c4ccc([N+](=O)[O-])cc4)n3-c3ccc(F)cc3)cc2)CC1

entry no.	43	44	45	46	47	48
NPYLR7 ag	6	6	5	6	11	18
NPYLR7 ag max-min	4	11	-4	3	8	14

(49) Cc1cc(C(=O)N(C)Cc2ncnn2C)c(C)n1C(C)C
(50) CCCCN(CC(=O)N(CCc1ccc(OC)c(OC)c1)Cc1ccc(C)s1)C(=O)c1ccc(F)cc1
(51) Cc1csc(C2CCCCN2C(=O)C2CCCN(Cc3ccccc3)C2)n1 (centres undefined)
(52) COC(=O)c1cc(C(C)C)nc2c1c(-c1cccs1)nn2C1CCS(=O)(=O)C1 (centres undefined)
(53) O=C(CCc1ccc2c(c1)OCCO2)NCc1ccc(C(=O)N2CCOCC2)cc1
(54) CSC1CCCC1NS(C)(=O)=O (centres undefined)

entry no.	49	50	51	52	53	54
NPYLR7 ag	-2	-2	5	15	5	2
NPYLR7 ag max-min	-4	-10	2	6	3	211

(55) Cc1ccc2ncc(NC(=O)c3ccc(F)cc3)c(=O)n2c1
(56) COc1cc(N2CCC(=O)N(Cc3ccc(F)cc3)C(C(C)C)C2)ncn1 (centres undefined)
(57) O=C(c1ccco1)N1CCCN(c2nc(C3CCOCC3)nc3c2cnn3-c2ccccc2)CC1
(58) CCCCc1ncc(CN2CCCC(C(=O)Nc3ccc(-c4cscn4)cc3)C2)[nH]1 (centres undefined)
(59) Fc1ccc(Oc2ccc3c(C4CC4)noc3n2)cc1
(60) COc1cccc(Cn2c(=O)c(C(=O)NCc3ccc4c(c3)OCO4)nn(-c3cccc(OC)c3)c2=O)c1

entry no.	55	56	57	58	59	60
NPYLR7 ag	0	7	10	10	7	12
NPYLR7 ag max-min	4	3	13	4	3	14

(61) COC(=O)Cn1c(=O)c2c(nc3n2CCN3c2ccc(Cl)cc2)n(C)c1=O
(62) CC(C)(Cc1ccc(F)cc1)NC(=O)c1cccnc1Nc1cccc(Cl)c1
(63) CCC1c2ccsc2CCN1CCC(=O)Nc1cc(C)on1 (centres undefined)
(64) Cc1ncc([N+](=O)[O-])n1CCN1C(=O)C2C(C1=O)[C@H]1C=C[C@@H]2C1 (some centres undefined)
(65) O=C(c1csc(CSc2nnc(-c3ccncc3)n2-c2cccc(C(F)(F)F)c2)n1)N1CCN(c2ccccc2F)CC1
(66) Cn1c(-n2ncc(NCC(c3ccccc3Cl)N3CCCC3)c(Cl)c2=O)nc2ccccc21 (centres undefined)

entry no.	61	62	63	64	65	66
NPYLR7 ag	4	-14	1	-5	2	13
NPYLR7 ag max-min	0	-22	-2	-10	2	51

(67) O=C(Cc1ccccc1)N1CCCC(OCc2cc(F)ccc2F)C1 (centres undefined)
(68) CC(=O)Nc1cccc(-c2n[nH]c(Cc3ccccc3)n2)c1
(69) c1ccc2oc(N3CCN(Cc4ccc(-c5ccn[nH]5)o4)CC3)nc2c1
(70) O=C(Cn1nc([N+](=O)[O-])nc1Br)NC1CCCCC1
(71) COc1cccc(C(=O)N(CCn2nc(C)cc2C)c2nc3ccccc3s2)c1OC
(72) COc1cccc(C2NC(=S)NC(C)=C2C(N)=O)c1 (centres undefined)

entry no.	67	68	69	70	71	72
NPYLR7 ag	-6	7	-3	-2	-18	6
NPYLR7 ag max-min	-5	0	-3	-7	-21	2

(73) COc1nn(C)cc1C(=O)Nc1nc2ccc3nc(SC)sc3c2s1
(74) CCCN1C2OC(C3OC4C(O3)N(CCC)S(=O)(=O)N4CCC)OC2N(CCC)S1(=O)=O (centres undefined)
(75) CO[C@H]1CN(C(=O)Cc2ccc(N3CCNC3=O)cc2)CC[C@H]1N
(76) O=C(O)CCCC[C@@H]1CCSS1
(77) c1ccc(-c2cn3cccnc3n2)cc1
(78) c1cncc(-c2nnc3sc(Cc4ccc5c(c4)OCCO5)nn23)c1

entry no.	73	74	75	76	77	78
NPYLR7 ag	1	0	-5	-2	2	-1
NPYLR7 ag max-min	7	-3	-5	22	1	0

Along the list, from the results shown:
Compounds 73–78 in NPYLR7 ag max-min read 7, -3, -5, 22, 1, 0
Compounds 73–78 in NPYLR7 ag read 1, 0, -5, -2, 2, -1

Next structures.
(79) CC(C)(C)NS(=O)(=O)c1ccc2c(c1)Cc1cc(S(=O)(=O)NC(C)(C)C)ccc1-2
(80) CCC(C)N(Cc1ccc(OS(=O)(=O)CC)cc1)C(=O)c1cccc(C(F)(F)F)c1 (centres undefined)
(81) Cc1noc2nc(-c3ccco3)cc(C(=O)N3CSCC3C(=O)NCc3ccccc3)c12 (centres undefined)
(82) Cc1nc(NCCN2CCc3ccccc3C2)c2cnn(C)c2n1
(83) COC(=O)c1sc(N2C(=O)C(=O)C(=C(O)c3ccccc3)C2c2ccccc2F)nc1C (centres undefined)
(84) Cc1ccc(NC(=O)NCC2CCCN(C3CS(=O)(=O)C[C@H]3O)C2)cc1 (some centres undefined)

entry no.	79	80	81	82	83	84
NPYLR7 ag	-2	-2	0	18	0	6
NPYLR7 ag max-min	-2	4	3	8	9	-5

(85) Cc1conc1NC(=O)CSc1nc(-c2cccs2)cc(C(F)(F)F)n1
(86) CCC(C(=O)N(CC(=O)N(Cc1ccccc1)Cc1cccn1C)C(C)CC)c1ccccc1 (centres undefined)
(87) Cc1c(C(=O)NC2CCCCC2)c(C)n2cn[nH]c(=O)c12
(88) COc1ccc(CC(C#N)C=Nc2ccc(C)cc2)cc1 (centres undefined)
(89) Cc1cccc(COC2CCCN(C(=O)C3CCCC3)C2)c1 (centres undefined)
(90) COc1ccccc1OC1CN(c2nccc(N3CCCC(O)C3)n2)C1 (centres undefined)

entry no.	85	86	87	88	89	90
NPYLR7 ag	9	-3	1	8	7	14
NPYLR7 ag max-min	2	4	-4	6	14	8

(91) COc1ccc(-n2c(=O)[nH]c3c(C(N)=O)nc(-c4ccco4)nc32)cc1
(92) CCCCNC(=O)CC(c1ccccc1C(F)(F)F)c1c[nH]c2c(CC)cccc12 (centres undefined)
(93) COc1ccc(C(=O)Nc2cc(C)nn2-c2ncnc3c2cnn3-c2cccc(C)c2C)cc1OC
(94) Cc1ccc(C(=O)Nc2ccc(NC(=O)c3oc(C)nc3C)cc2)o1
(95) NS(=O)(=O)c1ccc(NC(=O)c2cccn(OCc3ccccc3F)c2=O)cc1
(96) COc1ccc(-c2cc(C(F)(F)F)nc(S(C)(=O)=O)n2)cc1

entry no.	91	92	93	94	95	96
NPYLR7 ag	0	4	0	15	3	1
NPYLR7 ag max-min	-3	13	-1	4	1	-1

(97) O=C(CSc1ccncc1)N1CCOc2ccc(F)cc21
(98) Oc1oc(-c2ccc(Br)cc2)nc1C=Nc1ccc(Br)cn1
(99) CCN1CC2=C(OC3(O)CCN(CC)CC3C2c2ccccc2)/C(=C/c2ccccc2)C1 (centres undefined)
(100) CCOC(=O)C1=C(CC)NC2=C(C(=O)CCC2)C1c1cccnc1 (centres undefined)
(101) CC(C)CN(CC(=O)Nc1cc(C(C)(C)C)nn1-c1ccc(Cl)c(Cl)c1)C(=O)Nc1ccc(C(F)(F)F)cc1
(102) CC(C)SC(NC(=O)OCc1ccccc1)C(=O)NCCCOc1cccc([N+](=O)[O-])c1 (centres undefined)
(103) Cn1c(=O)c2ccccc2n2c(CN3CCCC3c3cccc(F)c3)nnc12 (centres undefined)
(104) COc1cc2ccccc2cc1C(=O)Nc1nc(C)c(C(C)=O)s1

entry no.	97	98	99	100	101	102	103	104
NPYLR7 ag	-5	0	3	-1	-9	-9	-2	-1
NPYLR7 ag max-min	41	-6	0	-3	-13	-17	-6	-8
